FGF22 binding = shifts melting point of recombinant human FGF22; 340,000 tested, 1.5% active; recombinant FGF22 thermal shift, SYPRO orange fluorescence; percent of sucrose octasulfate shift, DMSO zero; calls only at 9.99 µM; Q9HCT0; AID 651658;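 active = melting point raised past a set limit in the mean and every replicate; three in four hits are not shown here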
Target sequence (Q9HCT0 whole entry, looked up): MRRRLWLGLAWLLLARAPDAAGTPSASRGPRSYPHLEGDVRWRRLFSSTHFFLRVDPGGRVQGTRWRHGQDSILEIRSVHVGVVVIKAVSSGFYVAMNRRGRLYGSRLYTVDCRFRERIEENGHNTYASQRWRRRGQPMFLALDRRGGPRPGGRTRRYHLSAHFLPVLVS
rRNA inh HTS = inhibits bacterial ribosomal RNA function over humanized ribosomes; AID 720706; GFP signal change (wild-type ribosome), % (test concentration not listed); 350,000 tested, 1.6% active; E. coli WT GFP vs humanized-ribosome RFP mutants, fluorescence, 24 h; stronger effect = lower value; DMSO median 0, no signal -100;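 active = significant combined selectivity score with lowered wild-type GFP, culture density cut under 30%, mutant RFP and density less affected; inactive = any of these conditions unmet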; note: one replicate is shown; some compounds called inactive have numbers as strong as hits
rRNA inh HTS OD600 = further read-out of rRNA inh HTS, marked with its call; OD600 change, %; measured here: OD600 growth;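 optical density of the mix in the first replicate; 0 = DMSO median and -100 = no signal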
rRNA inh HTS RFP = recorded beside rRNA inh HTS, whose call it bears; RFP signal change, %; measured here: RFP humanized mutant strains;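 first replicate; 0 = DMSO median and -100 = no signal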
Active calls of the source: *. An excerpt; the hit share may differ from the screen's.

Screening CO[C@@H]1CN(C)C(=O)c2ccc(NS(=O)(=O)c3ccc(-c4ccccc4)cc3)cc2OC[C@@H](C)NC[C@@H]1C returned FGF22 binding inactive, rRNA inh HTS 1, rRNA inh HTS OD600 2 and rRNA inh HTS RFP 6.7.
For C[C@H](CO)N1C[C@H](C)[C@H](CN(C)C(=O)CCCN(C)C)OCCCC[C@H](C)Oc2ccc(NS(C)(=O)=O)cc2C1=O the results were FGF22 binding inactive, rRNA inh HTS 2, rRNA inh HTS OD600 3 and rRNA inh HTS RFP -1.1.
COc1ccccc1-c1ccc([C@@H]2[C@H](C#N)N[C@H]2CO)cc1 was read as FGF22 binding inactive, rRNA inh HTS 2, rRNA inh HTS OD600 2 and rRNA inh HTS RFP -2.1.
Screening NCC[C@H]1CC[C@H](NS(=O)(=O)Cc2ccccc2)[C@H](CO)O1 returned FGF22 binding inactive, rRNA inh HTS 0, rRNA inh HTS OD600 1 and rRNA inh HTS RFP 0.8.
`O=C(C[C@@H]1C=C[C@@H](NC(=O)C2CCC2)[C@H](CO)O1)Nc1nccs1` gave FGF22 binding inactive, rRNA inh HTS 1, rRNA inh HTS OD600 1 and rRNA inh HTS RFP 0.8.
O=C(C1CC1)N1CC[C@@H]2[C@H]1c1cc(C#Cc3ccccc3F)ccc1N[C@@H]2CO was read as FGF22 binding inactive, rRNA inh HTS 0, rRNA inh HTS OD600 4 and rRNA inh HTS RFP -0.1.
C[C@@H]1CN([C@@H](C)CO)C(=O)c2cc(NS(=O)(=O)c3ccccc3)ccc2O[C@@H](C)CCCCO[C@@H]1CN(C)C(=O)CCCN(C)C was read as FGF22 binding inactive, rRNA inh HTS 8, rRNA inh HTS OD600 8 and rRNA inh HTS RFP 0.8.
Screening C[C@H](CO)N1C[C@H](C)[C@H](CN(C)Cc2ccc(C(F)(F)F)cc2)Oc2ccc(N(C)C)cc2C1=O returned FGF22 binding inactive, rRNA inh HTS 0, rRNA inh HTS OD600 -4 and rRNA inh HTS RFP 1.2.
C[C@@H]1CN([C@@H](C)CO)C(=O)Cc2cc(NC(=O)Cn3cnnn3)ccc2O[C@H]1CN(C)Cc1ccccc1 was read as FGF22 binding inactive, rRNA inh HTS 3, rRNA inh HTS OD600 6 and rRNA inh HTS RFP 1.1.
Screening N#C[C@@H]1[C@@H](c2ccccc2C2=CCCCC2)[C@@H](CO)N1S(=O)(=O)c1ccccc1 returned FGF22 binding inactive, rRNA inh HTS -18, rRNA inh HTS OD600 -44 and rRNA inh HTS RFP -7.2.

The closing four entries of the section before are carried over, then new ones follow.
C[C@@H]1CN([C@@H](C)CO)C(=O)c2cc(NS(=O)(=O)c3ccccc3)ccc2O[C@@H](C)CCCCO[C@@H]1CN(C)C(=O)CCCN(C)C was read as FGF22 binding inactive, rRNA inh HTS 8, rRNA inh HTS OD600 8 and rRNA inh HTS RFP 0.8.
Screening C[C@H](CO)N1C[C@H](C)[C@H](CN(C)Cc2ccc(C(F)(F)F)cc2)Oc2ccc(N(C)C)cc2C1=O returned FGF22 binding inactive, rRNA inh HTS 0, rRNA inh HTS OD600 -4 and rRNA inh HTS RFP 1.2.
C[C@@H]1CN([C@@H](C)CO)C(=O)Cc2cc(NC(=O)Cn3cnnn3)ccc2O[C@H]1CN(C)Cc1ccccc1 was read as FGF22 binding inactive, rRNA inh HTS 3, rRNA inh HTS OD600 6 and rRNA inh HTS RFP 1.1.
Screening N#C[C@@H]1[C@@H](c2ccccc2C2=CCCCC2)[C@@H](CO)N1S(=O)(=O)c1ccccc1 returned FGF22 binding inactive, rRNA inh HTS -18, rRNA inh HTS OD600 -44 and rRNA inh HTS RFP -7.2.
Screening COc1ccccc1NC(=O)N[C@@H]1C=C[C@@H](CC(=O)N[C@@H](C)c2ccccc2)O[C@H]1CO returned FGF22 binding inactive, rRNA inh HTS -3, rRNA inh HTS OD600 -8 and rRNA inh HTS RFP -1.0.
`CNC[C@@H]1Oc2c(NS(=O)(=O)c3ccccc3)cccc2C(=O)N([C@@H](C)CO)C[C@H]1C` gave FGF22 binding inactive, rRNA inh HTS 3, rRNA inh HTS OD600 6 and rRNA inh HTS RFP 0.9.
COc1ccc(S(=O)(=O)N(C)C[C@H]2Oc3c(NC(=O)c4cnccn4)cccc3C(=O)N([C@H](C)CO)C[C@H]2C)cc1 was read as FGF22 binding inactive, rRNA inh HTS -3, rRNA inh HTS OD600 -5 and rRNA inh HTS RFP -0.6.
`COc1ccc(C#Cc2ccc3c(c2)[C@H]2[C@H](CCN2C(C)=O)[C@@H](CO)N3C)cc1` gave FGF22 binding inactive, rRNA inh HTS 2, rRNA inh HTS OD600 7 and rRNA inh HTS RFP -4.3.
For COc1ccc(NC(=O)N(C)C[C@H]2Oc3c(NC(=O)Nc4c(C)noc4C)cccc3C(=O)N([C@H](C)CO)C[C@H]2C)cc1 the results were FGF22 binding inactive, rRNA inh HTS -1, rRNA inh HTS OD600 2 and rRNA inh HTS RFP -2.6.
For C[C@@H]1CN([C@@H](C)CO)C(=O)c2cccc(NC(=O)C3CCCCC3)c2O[C@H]1CN(C)S(=O)(=O)c1ccc(F)cc1 the results were FGF22 binding inactive, rRNA inh HTS -1, rRNA inh HTS OD600 5 and rRNA inh HTS RFP -0.3.
Screening C[C@H](CO)N1C[C@H](C)[C@H](CN(C)Cc2ccc3c(c2)OCO3)Oc2ccc(NC(=O)Nc3ccc(C(F)(F)F)cc3)cc2CC1=O returned FGF22 binding inactive, rRNA inh HTS 2, rRNA inh HTS OD600 -7 and rRNA inh HTS RFP 2.0.
`C[C@@H]1CN([C@H](C)CO)C(=O)Cc2cc(NC(=O)Nc3ccc(F)cc3)ccc2O[C@H]1CN(C)Cc1ccc(-c2ccccc2)cc1` gave FGF22 binding inactive, rRNA inh HTS 1, rRNA inh HTS OD600 2 and rRNA inh HTS RFP 1.6.
`COc1ccc(S(=O)(=O)Nc2ccc3c(c2)C(=O)N([C@H](C)CO)C[C@H](C)[C@@H](CN(C)C)O3)cc1` gave FGF22 binding inactive, rRNA inh HTS 1, rRNA inh HTS OD600 6 and rRNA inh HTS RFP -3.1.
Screening N#C[C@H]1[C@@H](c2ccc(C#CC3CC3)cc2)[C@@H](CO)N1S(=O)(=O)c1ccccc1 returned FGF22 binding inactive, rRNA inh HTS 1, rRNA inh HTS OD600 3 and rRNA inh HTS RFP -0.6.
For COc1ccc(S(=O)(=O)Nc2ccc3c(c2)C(=O)N([C@@H](C)CO)C[C@H](C)[C@H](CN(C)Cc2ccccc2)O3)cc1 the results were FGF22 binding inactive, rRNA inh HTS 3, rRNA inh HTS OD600 4 and rRNA inh HTS RFP 0.1.
For COc1cccc(NC(=O)N(C)C[C@H]2Oc3cc(C#CC4(O)CCCC4)ccc3S(=O)(=O)N([C@H](C)CO)C[C@@H]2C)c1 the results were FGF22 binding inactive, rRNA inh HTS 0, rRNA inh HTS OD600 -3 and rRNA inh HTS RFP 1.1.
For COc1ccc(NC(=O)Nc2ccc3c(c2)CC(=O)N([C@@H](C)CO)C[C@H](C)[C@@H](CN(C)Cc2ccc(C(=O)O)cc2)O3)cc1 the results were FGF22 binding inactive, rRNA inh HTS 3, rRNA inh HTS OD600 3 and rRNA inh HTS RFP -2.0.
`O=C(C1CC1)N1C[C@@H]2[C@H](c3ccccc31)[C@H](CO)N2Cc1ccccc1Cl` gave FGF22 binding inactive, rRNA inh HTS -9, rRNA inh HTS OD600 -14 and rRNA inh HTS RFP 0.9.
For COc1cccc(-c2cnc3c(c2)C(=O)N([C@@H](C)CO)C[C@@H](C)[C@@H](CN(C)Cc2ccc(C(=O)O)cc2)O3)c1 the results were FGF22 binding inactive, rRNA inh HTS 2, rRNA inh HTS OD600 9 and rRNA inh HTS RFP 0.8.
For C[C@@H]1CN([C@@H](C)CO)C(=O)c2ccccc2-c2ccccc2CO[C@@H]1CN(C)C(=O)Nc1ccnc(N2CCOCC2)c1 the results were FGF22 binding inactive, rRNA inh HTS 1, rRNA inh HTS OD600 4 and rRNA inh HTS RFP -0.9.
`COc1ccc(S(=O)(=O)Nc2ccc3c(c2)CC(=O)N([C@@H](C)CO)C[C@H](C)[C@@H](CN(C)C(=O)Nc2c(C)noc2C)O3)cc1` gave FGF22 binding inactive, rRNA inh HTS 0, rRNA inh HTS OD600 -3 and rRNA inh HTS RFP -0.9.
Screening C[C@H]1CN([C@@H](C)CO)C(=O)c2cc(-c3ccccc3)cnc2O[C@@H]1CN(C)C(=O)C1CCOCC1 returned FGF22 binding inactive, rRNA inh HTS -1, rRNA inh HTS OD600 2 and rRNA inh HTS RFP -3.4.
`O=C(C[C@H]1C[C@@H]2c3cc(NC(=O)Nc4ccc(C(F)(F)F)cc4)ccc3O[C@@H]2[C@H](CO)O1)NCc1ccc(Cl)cc1` gave FGF22 binding inactive, rRNA inh HTS -5, rRNA inh HTS OD600 -18 and rRNA inh HTS RFP 2.0.
C[C@@H]1CN([C@H](C)CO)S(=O)(=O)c2ccc(C#Cc3cccnc3)cc2O[C@@H]1CN(C)C(=O)Nc1ccc2c(c1)OCO2 was read as FGF22 binding inactive, rRNA inh HTS -2, rRNA inh HTS OD600 -9 and rRNA inh HTS RFP -0.3.
For CC(C)NC(=O)N[C@@H]1CC[C@@H](CC(=O)NCc2ccc(Oc3ccccc3)cc2)O[C@H]1CO the results were FGF22 binding inactive, rRNA inh HTS -1, rRNA inh HTS OD600 4 and rRNA inh HTS RFP -1.4.
COc1ccccc1CNC(=O)C[C@@H]1CC[C@H]2[C@@H](COC[C@@H](O)CN2Cc2ccccc2)O1 was read as FGF22 binding inactive, rRNA inh HTS -3, rRNA inh HTS OD600 -12 and rRNA inh HTS RFP -4.4.
`COc1ccc(S(=O)(=O)N2CC[C@@H]3[C@H]2c2cc(-c4ccc(C#N)cc4)ccc2N[C@@H]3CO)cc1` gave FGF22 binding inactive, rRNA inh HTS 6, rRNA inh HTS OD600 -4 and rRNA inh HTS RFP 0.1.
O=C(C[C@@H]1CC[C@@H](NC(=O)Nc2ccc(C(F)(F)F)cc2)[C@H](CO)O1)NCc1cc(F)cc(F)c1 was read as FGF22 binding inactive, rRNA inh HTS -3, rRNA inh HTS OD600 4 and rRNA inh HTS RFP -1.6.
Screening CC(C)NC(=O)Nc1ccc2c(c1)C(=O)N([C@@H](C)CO)C[C@@H](C)[C@@H](CN(C)S(=O)(=O)c1ccccc1)OCCCC[C@H](C)O2 returned FGF22 binding inactive, rRNA inh HTS 0, rRNA inh HTS OD600 -4 and rRNA inh HTS RFP 0.3.
For CCC(=O)N1C[C@H](C)[C@@H](OC)CN(C)C(=O)c2cc(NC(=O)NC(C)C)ccc2OC[C@@H]1C the results were FGF22 binding inactive, rRNA inh HTS 2, rRNA inh HTS OD600 2 and rRNA inh HTS RFP 0.3.
Screening O=C(NC[C@@H]1N[C@@H](CO)[C@H]1c1ccc(-c2cccnc2)cc1)c1cccc(F)c1 returned FGF22 binding inactive, rRNA inh HTS -5, rRNA inh HTS OD600 2 and rRNA inh HTS RFP 1.1.
For CO[C@@H]1CN(C)C(=O)c2cc(NC(=O)NC3CCCCC3)ccc2OC[C@H](C)N(CCc2ccccc2)C[C@@H]1C the results were FGF22 binding inactive, rRNA inh HTS -5, rRNA inh HTS OD600 0 and rRNA inh HTS RFP 8.6.
CC(C)NC(=O)Nc1ccc2c(c1)C(=O)N(C)[C@@H]1CC[C@@H](CC(=O)NCC(F)(F)F)O[C@H]1CO2 was read as FGF22 binding inactive, rRNA inh HTS 1, rRNA inh HTS OD600 -6 and rRNA inh HTS RFP 0.6.
`C/C=C/c1ccc([C@H]2[C@@H](CO)N[C@@H]2CNC(=O)c2ccccc2F)cc1` gave FGF22 binding inactive, rRNA inh HTS -4, rRNA inh HTS OD600 -7 and rRNA inh HTS RFP 5.2.
For CO[C@H]1CN(C)C(=O)c2ccc(NC(=O)C3CC3)cc2OC[C@H](C)NC[C@H]1C the results were FGF22 binding inactive, rRNA inh HTS 2, rRNA inh HTS OD600 6 and rRNA inh HTS RFP 0.2.
For O=C(Nc1ccc2c(c1)[C@@H]1C[C@H](CC(=O)N3CCc4ccccc4C3)O[C@H](CO)[C@@H]1O2)NC1CCCC1 the results were FGF22 binding inactive, rRNA inh HTS -5, rRNA inh HTS OD600 -11 and rRNA inh HTS RFP 0.6.
C[C@@H]1CN([C@@H](C)CO)C(=O)c2cc(NC(=O)Nc3ccccc3)ccc2O[C@@H](C)CCCCO[C@@H]1CN(C)C(=O)C1CCCCC1 was read as FGF22 binding inactive, rRNA inh HTS 1, rRNA inh HTS OD600 -5 and rRNA inh HTS RFP 0.5.
Screening C[C@H]1CN([C@@H](C)CO)C(=O)c2cccc(NC(=O)c3ccncc3)c2O[C@@H]1CN(C)C(=O)Nc1ccc2c(c1)OCO2 returned FGF22 binding inactive, rRNA inh HTS 2, rRNA inh HTS OD600 9 and rRNA inh HTS RFP 1.3.

Screening results from PubChem BioAssay.
